High-throughput results (PubChem BioAssay)
CBX7 AlphaScr = CBX7 inhibition, primary AlphaScreen; O95931; AlphaScreen His6-CBX7 / biotin-H3K27me3 peptide binding; hits give low values; normalised signal (fraction of DMSO) (test concentration not listed); hit rate 1.1% among 66,000; AID 1224903; in the data active means normalised signal below about 0.5;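 further: 100 nL library stock added to about 20 µL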
Target sequence (O95931 whole entry, looked up): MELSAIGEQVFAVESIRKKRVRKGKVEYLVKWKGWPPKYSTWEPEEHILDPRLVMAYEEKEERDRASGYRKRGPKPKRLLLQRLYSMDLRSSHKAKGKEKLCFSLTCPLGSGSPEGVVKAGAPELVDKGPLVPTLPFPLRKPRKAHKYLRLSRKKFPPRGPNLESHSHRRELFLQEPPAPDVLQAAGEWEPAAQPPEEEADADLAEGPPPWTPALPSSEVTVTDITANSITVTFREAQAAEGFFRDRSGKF
CBX7 AlphaScr z-score = further read-out of CBX7 AlphaScr, marked with its call; z-score; measured here: z-score of CBX7 signal; some inactives read as strong as hits; reference of the scale not given here;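 same signal on another scale; lower means less binding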
* hit, by the source's call; & = joins results of further samples.

SMILES	CBX7 AlphaScr	CBX7 AlphaScr z-score
O=C(Nc1nnc(-c2ccccc2)s1)c1ccccc1Br	1.17	1.55
Cc1ccc(C(=O)c2oc3ccccc3c2NC(=O)COc2cccc(C)c2)cc1	1.04	0.161
Cc1cc(C(=O)N2CCN(c3cc(Cl)ccc3C)CC2)on1	1	0.0131
Cc1ccn2cc(-c3cccc(S(=O)(=O)N4CCCC(C)C4)c3)nc2c1 (configuration not stated)	0.95	-2.05
Cc1ccc(-c2cc(C(=O)NCc3ccccn3)c3ccccc3n2)cc1C	1.15	1.06
CCOC(=O)c1c(C)n(-c2ccc(C)cc2)c2ccc(OCC(O)CNC(C)(C)C)cc12 (configuration not stated)	0.764	-6.6
COc1ccc(NC(=O)C2CCCN(Cc3ccccc3)C2)cc1OC1CCCC1 (configuration not stated)	0.782	-4.33
COc1ccc(OC)c(CN2C(=O)CCC2(C)C(=O)NC2CCCCCC2)c1 (configuration not stated)	1.18	2.37
O=C(CN1CCCC1)Nc1c2c(nc3c1CCC3)CCC2	0.27*	-9.77*
CCOC(=O)N1CCC(NC(=O)CS(=O)(=O)Cc2nc(-c3ccccc3Cl)oc2C)CC1	0.989	-0.302
CCCC(=O)NCCCc1nc2ccccc2n1Cc1cc(C)ccc1C	1.07	0.693
CCC(Cc1ccccc1)NC(=O)c1ccc2c(c1)NC(=O)c1ccccc1S2 (configuration not stated)	1.2	1.44
CCc1ccc(-c2nc(CSCC(=O)NCCN(C)C)c(C)o2)cc1	1.21	1.35
O=C(Nc1cc(F)ccc1F)C1CCN(c2nnc(-n3cccc3)s2)CC1	1.18	1.93
COC(=O)c1ccccc1NC(=O)c1cnc(Nc2ccc(OC)cc2)c2ccccc12	0.869	-1.44
COCCNC(=O)C1CCCN(Cc2nc(-c3cccc(Cl)c3)oc2C)C1 (configuration not stated)	1.03	0.318
O=C(O)c1cccc(NC(=O)c2ccc(N3C(=O)c4ccccc4C3=O)cc2)c1	1.04	0.0397
Cc1ccc(-c2cc(C(F)(F)F)n3nc(C)cc3n2)cc1	1.01	0.137
O=C(NCc1ccccc1Cl)c1ccc2c(c1)N(Cc1ccccc1)C(=O)c1ccccc1S2	0.915	-0.842
Cc1ccc(NC(=O)CC2Nc3ccccc3NC2=O)cc1C (configuration not stated)	0.963	-0.042
COc1cccc(CC(=O)Nc2ccc3nc(N4CCN(c5ncccn5)CC4)cc(C)c3c2)c1	1.01	0.0609
CCc1ccc(NC(=O)Cn2cc(S(=O)(=O)c3ccc(F)cc3)c(=O)c3ccccc32)cc1	0.991	-0.309
COc1ccccc1C(O)c1cnc(C(C)C)n1C (configuration not stated)	1.07	0.336
CC1(C)CC(=O)N(CC(=O)NCCCN2CCCC2)c2ccccc2S1	1.03	0.962
C=CCn1c(NCc2cccc(Br)c2)nc2ccccc21	0.789	-3.97

As a working copy, part of the list above.
SMILES	CBX7 AlphaScr	CBX7 AlphaScr z-score
COc1cccc(CC(=O)Nc2ccc3nc(N4CCN(c5ncccn5)CC4)cc(C)c3c2)c1	1.01	0.0609
CCc1ccc(NC(=O)Cn2cc(S(=O)(=O)c3ccc(F)cc3)c(=O)c3ccccc32)cc1	0.991	-0.309
COc1ccccc1C(O)c1cnc(C(C)C)n1C (configuration not stated)	1.07	0.336
CC1(C)CC(=O)N(CC(=O)NCCCN2CCCC2)c2ccccc2S1	1.03	0.962
C=CCn1c(NCc2cccc(Br)c2)nc2ccccc21	0.789	-3.97

Next part:
SMILES	CBX7 AlphaScr	CBX7 AlphaScr z-score
O=C(CSc1nccn1-c1ccccc1)Nc1ccccc1F	0.875	-2.69
COc1ccc(Cn2c(CCC(=O)Nc3cc(Cl)c(OC)cc3OC)nc3cccnc32)cc1	0.922	-1.5
CCOC(=O)N1CCC(Nc2c(NCCCN(CC)Cc3ccccc3)c(=O)c2=O)CC1	0.906	-1.12
NC(=O)c1c(NC(=O)CN2CCCCC2)sc2c1CCCC2	0.962	-0.0384
Cc1cc(F)c(F)cc1C(=O)N1CCCCCC1	0.936	-0.683
COc1ccc(Cl)cc1-n1cc(-c2ccccc2)nc1SCC(=O)Nc1ccc(F)cc1	0.712	-9.45
Cc1ccc2c(c1)N(CC(=O)NCCN(C)C)C(=O)CO2	1.01	0.656
CC1CC(C)CN(C(C(=O)Nc2ccc(C(C)C)cc2)c2ccc3c(c2)OCO3)C1 (configuration not stated)	0.979	-0.128
Cn1c(=O)cc(OCCCC(=O)Nc2ccc(Oc3ccccc3)cc2)c2ccccc21	0.819	-2.96
Cc1ccccc1-n1nc2c(c1NC(=O)c1ccc(OC(C)C)cc1)CSC2	1.04	0.777
Cc1c(C(=O)NC2CCN(Cc3ccccc3)CC2)sc2ncn(C)c(=O)c12	1.01	0.201
O=C(NCC1CCCO1)c1csc2c1CCCCC2 (configuration not stated)	0.871	-0.508
Cc1ccccc1OCc1nc(-c2ccc(NC(=O)c3ccc4c(c3)OCO4)cc2)no1	1.14	1.81
Cn1c(=O)c2nc(NCCO)cnc2n(C)c1=O	0.99&0.965	-0.102&-0.873
COc1ccccc1Nc1nc(C)nc2sc(C)c(C)c12	1.04	0.0471
CCn1cc(C(=O)NCCCN2CCCC2)c2cc(OC)c(OC)cc2c1=O	0.984	-0.421
CCOC(=O)N1CCC(Nc2c(N3c4ccccc4CC3C)c(=O)c2=O)CC1 (configuration not stated)	1.04	0.687
Cc1ccc(Cn2cc(CCC(=O)NC3CCCCC3C)c3ccccc32)cc1 (configuration not stated)	0.72	-2.19
COc1ccccc1Nc1ncc(C(=O)N2CC(C)CC(C)C2)c2ccccc12 (configuration not stated)	1.14	1.16
COc1ccc(-c2cc3nc(C)c(CCC(=O)Nc4cccc(C)c4C)c(C)n3n2)c(OC)c1	1.07	0.888
CCCN(C(=O)c1ccc2c(=O)n3c(nc2c1)CCCCC3)c1ccccc1C	0.94	-0.124
Cc1ccccc1C(=O)Nc1sc2c(c1C(=O)N1CCC(C)CC1)CCC(C)C2 (configuration not stated)	1.05	0.581
Cc1cccc(Nc2nnc(-c3ccc(C)c(S(=O)(=O)N4CCOCC4)c3)c3ccccc23)c1	0.925	-1.4
Cc1cccc(CN2C(=O)c3ccccc3S(=O)(=O)c3ccc(C(=O)NC4CC4)cc32)c1	1.11	1.15
COc1cc(-c2nc(SCC(=O)NC3CCCC3)c(-c3ccccc3)[nH]2)cc(OC)c1OC	1.11	1.85
Continued.
SMILES	CBX7 AlphaScr	CBX7 AlphaScr z-score
Cn1c(=O)n(CC(=O)N2CCN(c3nnc(-c4ccccc4)c4ccccc34)CC2)c2ccccc21	1	-0.0205
c1ccc2cc(-c3csc(Nc4ccc5c(c4)OCO5)n3)ccc2c1	0.495*	-7.88*
O=C(NCCc1ccccc1)c1cc(-c2ccc(Br)cc2)on1	1.02	0.0273
CCOc1ccc2nc(N3CCCC(C(=O)NCCCOC)C3)sc2c1 (configuration not stated)	1.03	0.877
CCOc1ccc(NS(=O)(=O)c2ccc3[nH]cc(C(=O)NCc4ccccc4)c(=O)c3c2)cc1	0.872	-2.38
O=C(c1cc(-c2ccc(Cl)cc2)on1)N1CCN(c2ccc(F)cc2)CC1	0.987	-0.584
COC(=O)Cc1nc(NCc2ccc(Cl)cc2)c2c3c(sc2n1)CCCC3	0.884	-0.115
CC(=O)N1CCc2cc(S(=O)(=O)NCC(=O)N3CCN(c4ccccc4)CC3)ccc21	1.19	2.42
CCCN1Cc2cccc(C(=O)Nc3cc(C)ccc3C)c2C1=O	1.02	0.207
CC(NC(=O)c1ccc2c(c1)NC(=O)C1CCCN21)c1ccccc1 (configuration not stated)	0.962	-0.168
CCN1CCN(C(=O)CC(C(=O)N2CCc3ccccc32)n2ccnc2)CC1 (configuration not stated)	1.02	0.457
Cc1cccc(-c2nc(Cn3c(SCc4ccc(F)cc4)nc4ccncc43)c(C)o2)c1	0.962	-0.948
CCCOc1ccc(C(=O)Nc2cccc(-c3nc4cc(C)ccc4o3)c2)cc1	1.05	0.442
CCc1cc2c(=O)c(-c3nc4ccccc4n3C)c(C)oc2cc1OC(C)=O	0.894	-0.416
O=C(c1ccc2c(c1)N(Cc1cccc(Cl)c1)C(=O)c1ccccc1S2=O)N1CCCCCC1 (configuration not stated)	0.654	-2.17
Cc1ccccc1OCCn1c(=O)n(C)c2ccccc21	1.02	0.59
O=C1c2cccnc2C(=O)N1c1ccc(Oc2ccccc2)cc1	0.702	-5.86
COc1ccc(OC)c2[nH]c(=O)c(CCNC(=O)c3ccccc3Br)cc12	0.992	-0.313
CCC1=Nc2cc(C(=O)NCCN(C)Cc3ccccc3)ccc2Sc2ccc(C)cc21	0.917	-0.887
CCc1ccc2nc(Nc3ncc4c(n3)CCCC4=O)nc(C)c2c1	1.05	2.08
CC(NC(=O)c1noc2c1CCc1ccccc1-2)c1ccccc1 (configuration not stated)	0.854	-1.74
COc1ccccc1C(=O)Nc1ccc2oc(-c3ccc(Cl)c(Cl)c3)nc2c1	1	0.0695
COc1ccccc1NCC(O)Cn1c2c(c3cc(C)ccc31)CCCC2 (configuration not stated)	0.829	-1.84
CC(=O)c1cccc(NS(=O)(=O)c2ccc3c(c2)CCN3C(=O)C2CC2)c1	0.987	-0.366
COc1cc2c(cc1OC)C(C)N(C(=O)c1cc3c(s1)-c1ccccc1OC3)CC2 (configuration not stated)	0.844	-2.18
Next part.
SMILES	CBX7 AlphaScr	CBX7 AlphaScr z-score
Cc1ccc(-n2nc3c(c2NC(=O)CCC2CCCC2)CSC3)cc1	0.969	-1.57
Fc1ccccc1CSc1nnc(-c2ccncc2)n1-c1ccccc1	1.18&0.874	2.04&-1.2
CCCCN(C)c1nc(-c2ccccc2)c2c(c1C#N)CC(C)(C)OC2	2.49	1.97
CC(C)Cn1c(CNC(=O)c2ccc(Cl)cc2)nc2ccccc21	1.21	2.08
Cc1ccc(N2CC(C(=O)NCc3ccc4c(c3)OCO4)CC2=O)cc1C (configuration not stated)	1.04	1.16
COc1ccc(-c2cc(-c3ccc(F)cc3)nc(N3CCN(C)CC3)n2)cc1	1.23	2.19
CC(=O)N1CCC(N(CCC(C)C)C(=O)Nc2ccccc2)CC1	0.952	-0.64
CCN(CC)c1ccc2cc(-c3nc(-c4ccc(Cc5ccccc5)cc4)cs3)c(=O)oc2c1	1.71	7.68
O=c1[nH]c2ccc(S(=O)(=O)NCCc3ccccc3)cc2[nH]1	1.05	0.0607
CC1(C)CC(=O)C2=C(C1)c1c(ccc3ncccc13)NC2c1ccccc1 (configuration not stated)	1.07	0.836
Cc1cc(NC(=O)c2c(-c3ccccc3Cl)noc2C)ccc1Br	1.09	2.07
Cc1ccc(NC(=O)C(c2ccccc2)N2CCC(Cc3ccccc3)CC2)cc1 (configuration not stated)	0.837	-3.48
CCOc1ccc2[nH]cc(S(=O)(=O)c3ccc(F)cc3)c(=O)c2c1	1.07	2.68
Cc1ccc(C)c(Nc2nc(-c3ccc(Cl)cc3)cs2)c1	1.12	2.24
COc1ccc(CNC(=O)Cn2nc(Cc3cccnc3)c3ccccc3c2=O)cc1	0.991	-0.012
COc1cccc(NC(=O)Cn2c(=O)n(-c3ccc(C)c(F)c3)c(=O)c3sccc32)c1	0.993	-0.153
Cc1cc(C)nc(NC2=NCC(=O)N2c2ccccc2C)n1	0.934	-2.34
O=C(Nc1ccccc1C(F)(F)F)c1cnc2ccccn2c1=O	1.03	0.457
Cc1c(C(=O)Nc2ccccc2Cl)oc2ccc(S(=O)(=O)N3CCC4(CC3)OCCO4)cc12	0.936	-0.878
Cc1noc(C)c1S(=O)(=O)NCc1ccccc1Cl	1.03	1.41
Clc1ccc(-c2noc(CCCc3ccccc3)n2)cc1	1.33	10.7
CCc1ccc(OCC(=O)Nc2ccc3oc(-c4ccccc4F)nc3c2)cc1	1.02	0.725
NC(=O)C1(N2CCCCC2)CCN(c2ccc3nnc(-c4ccccc4)n3n2)CC1	0.918	-1.86
Cc1cccc(NC(=O)CSc2nccn2-c2ccc(F)cc2)c1C	0.738	-0.347
CN(C(=O)Cn1nc(Cc2cccnc2)c2ccccc2c1=O)c1ccc(Br)cc1	0.997	-0.0821

Reprinted from the part before: 5 entries; new compounds follow.
SMILES	CBX7 AlphaScr	CBX7 AlphaScr z-score
Clc1ccc(-c2noc(CCCc3ccccc3)n2)cc1	1.33	10.7
CCc1ccc(OCC(=O)Nc2ccc3oc(-c4ccccc4F)nc3c2)cc1	1.02	0.725
NC(=O)C1(N2CCCCC2)CCN(c2ccc3nnc(-c4ccccc4)n3n2)CC1	0.918	-1.86
Cc1cccc(NC(=O)CSc2nccn2-c2ccc(F)cc2)c1C	0.738	-0.347
CN(C(=O)Cn1nc(Cc2cccnc2)c2ccccc2c1=O)c1ccc(Br)cc1	0.997	-0.0821
Cc1ccc(Nc2cccc3nonc23)cc1	1.65	18.3
CCN1CCN(c2cc(C)c3cc(NC(=O)c4cccs4)ccc3n2)CC1	1.06	0.396
O=c1[nH]c2ccccc2n1Cc1ccc(Cl)cc1Cl	1.06	0.909
COC(=O)c1c(NC(=O)c2ccc(OC)cc2OC)sc2c1CCCCCC2	1.1	2.44
CCCCN(C)S(=O)(=O)c1ccc(C(=O)Nc2ccccc2-c2nc3ccccc3[nH]2)cc1	1.05	0.0582
CCOC(=O)c1oc2ccc(Br)cc2c1NC(=O)CCN1CCCCC1	1.4	0.819
CCOC(=O)N1CCN(c2c(NCCN3CCN(Cc4ccccc4)CC3)c(=O)c2=O)CC1	1.05	0.88
COc1ccc(Nc2cc(C(=O)NCCN3CCOCC3)c3ccccc3n2)c(OC)c1	0.766	-3.59
Cc1ccc(S(=O)(=O)c2cn(CC(=O)Nc3ccccc3C)c3ccc(Cl)cc3c2=O)cc1	1.03	0.363
Cc1ccc2c(c1)c(=O)c(S(=O)(=O)c1ccc(F)cc1)cn2CC(=O)Nc1ccccc1	1.04	1.52
CCc1ccc(CN2C(=O)CCC2(C)C(=O)NC2CCCC2)cc1 (configuration not stated)	0.882	-1.93

An excerpt; count on the stated rates, not on these rows.
